Compound activity from PubChem BioAssay.
VACV mCherry inh – inhibitors of vaccinia virus infection (mCherry reporter signal); Vaccinia virus mCherry reporter infection, fluorescence; about a quarter of the inactives have no number; Potency, µM (series often up to 36.5 µM), for inactives: at the highest dose activity change, negative = inhibition, most hits filed as inhibitors; AID 720579; 310,000 tested, 0.63% active; active = well fitted inhibition curve with a large enough effect; inconclusive = small, poorly fitted or top-dose-only effect; inactive = no such curve, though single readings can be large or run the other way; tested in A549 cells; note: nearly all actives have a fitted effect of over 35% in size; inactives centre near -10
VACV Venus inh – inhibitors of vaccinia virus (Venus reporter); 330,000 tested, 0.46% active; AID 720580; Potency, µM (doses to about 36.5 µM), inactives show at the top dose activity change, negative = inhibition, hits mostly inhibitors; Vaccinia virus Venus reporter expression, fluorescence; active means well fitted inhibition curve with a large enough effect; inconclusive means small, poorly fitted or top-dose-only effect; inactive means no such curve, though single readings can be large or run the other way; tested in A549 cells; note: nearly all actives have a fitted effect of over 30% in size; inactives centre near -10
* marks the source's active call; other numbers are inactive results; i = inactive; u = inconclusive; x = no result given; & = joins results of further samples; [ ] = dose if it differs, or a comment. % is set by controls: 0 for no effect and ±100 for the full control effect; potency is the fitted concentration of half-maximal effect. Outcome played no part in choosing rows, and some 0.88% of all compounds hit somewhere here.

SMILES	VACV mCherry inh	VACV Venus inh
COc1cc(OC)c(C(=O)OCC(=O)NCC2CCCCC2)cc1OC	-17%	-10%
COC(=O)Nc1nnc(-c2ccco2)s1	i	-4%
Cc1ccc2[nH]c(=O)c(CN(Cc3ccc4c(c3)OCO4)Cc3nnnn3C3CCCC3)cc2c1	-15%	-8%
CCS(=O)(=O)NCCCCc1ccccc1	-11%	-5%
O=C(O)c1ccc(COc2ccccc2/C=C2\NC(=O)N(Cc3ccccc3)C2=O)cc1	i	-10%
O=C(CCc1ccccc1)NNC(=O)Cc1ccccc1	i	-1%
CC(C)C(=O)N(c1ccc(F)cc1)C1C=CS(=O)(=O)C1 (centres undefined)	-6%	-7%
COc1ccc(NC(=O)Cn2c(=O)n(CC3CCCO3)c(=O)c3cc(OC)c(OC)cc32)c(OC)c1 (centres undefined)	0%	-16%
Cc1cc(C(=O)Nc2cccnc2)no1	i	-9%
COc1ccc(/C(C)=N/NC(=O)c2ccccc2N)cc1	-15%	-8%
Cc1cc(C)cc(NC(=O)Cc2ccc(NC3=NC4CS(=O)(=O)CC4S3)cc2)c1 (centres undefined)	-3%	11%
CNc1nc(SC)nc(N2CCOCC2)n1	-13%	-1%
CCOC(=O)c1c(NC(=O)CCCN2CCOCC2)sc2c1CC(C)(C)OC2	-16%	-7%
Cc1cccnc1NC(=O)COc1ccc2oc3c(c2c1)CCCC3	-17%	-14%
CSc1ncc(Cl)c(C(=O)N(C)c2ccccc2)n1	-11%	-4%
CSc1ccc(S(=O)(=O)Nc2ccc(N3CCOCC3)c(Cl)c2)cc1	-11%	-20%
CCC(CO)NC1=C([N+](=O)[O-])C(=O)CC(C)(C)C1 (centres undefined)	-13%	-8%
Cc1cc(N2CCOCC2)nc2ccc(NC(=O)CCC(=O)N3CCC4(CC3)OCCO4)cc12	-21%	-1%
O=C(c1ccc2ccccc2c1)N1CCCCC1	-11%	-1%
COc1ccc(C(=O)OC(C)C(=O)NC(C)CCc2ccccc2)c(OC)c1 (centres undefined)	i	-20%
O=C(NCc1cccnc1)c1ccc(CS(=O)(=O)Cc2ccc(Cl)cc2)o1	i	-15%
CN(CC(=O)Nc1ccccc1Cl)C(=O)C1CCN(S(=O)(=O)c2ccc3c(c2)OCCO3)CC1	-7%	-23%
Cc1ccc(/C=N/NC(=O)CN2C(=O)CSc3ccccc32)o1	i	-17%
Cn1c(=O)c(=O)n(C)c2cc(S(=O)(=O)CCC(=O)Nc3ccc(F)cc3)ccc21	-11%&-14%	-3%&-10%
C/C=C(/C)C(=O)OC1C(OC(C)=O)[C@@]2(CO)C(O)C[C@@]3(C)C(=CCC4[C@@]5(C)CCC(OC6OC(C(=O)O)[C@@H](O[C@@H]7OC(CO)C(O)C(O)C7O)C(O)[C@H]6O[C@@H]6OC(CO)C(O)C(O)C6O)[C@](C)(CO)C5CC[C@@]43C)C2CC1(C)C (some centres undefined)	u	-27%
Remaining list, next part:
SMILES	VACV mCherry inh	VACV Venus inh
COc1cc(NC(=O)c2cc3c(s2)-c2ccccc2OC3)cc(OC)c1OC	-28%	-24%
O=S(=O)(NCCN1CCN(S(=O)(=O)c2ccccc2F)CC1)c1ccccc1F	-22%	-14%
Cc1ccc(C(=O)N/C(=C\c2cn(C)c3ccccc23)C(=O)NCCCn2ccnc2)cc1	-23%	-13%
O=S(=O)(c1ccc2c(c1)CCC2)N1CCN(c2nc(-c3ccccc3)nc3ccccc23)CC1	0%	-16%
COc1cc(CNc2ccc3[nH]c(=O)[nH]c3c2)ccc1OCc1c(F)cccc1Cl	u	u
Cc1ccc(Cn2ccc(NC(=O)c3nc4ncccn4n3)n2)cc1	x	-3%
Cc1nnsc1C(=O)NCC1Cc2cccc(-c3ncccn3)c2O1 (centres undefined)	-9%	-2%
O=C1Cc2ccccc2C(=O)N1c1cccc(Cl)c1	i	1%
O=C(COc1ccccc1[N+](=O)[O-])Nc1ccc(NC(=O)c2cc3ccccc3o2)cc1	i	-8%
CC1=C(C(=O)Nc2ccc(Cl)cc2)C(C(C)C)n2nc(SCc3cccc(C)c3)nc2N1 (centres undefined)	-9%	-5%
CCOC(=O)N1CCN(S(=O)(=O)N2CCCC(C(=O)NCc3cc(OC)ccc3OC)C2)CC1 (centres undefined)	-8%&-8%	-14%&-3%
Cc1cc(C(=O)COC(=O)c2ccc(O)cc2)c(C)n1CC1CCCO1 (centres undefined)	-12%	0%
CC1=Nc2cc(C(=O)NC3CCCCC3)ccc2Sc2ccc(Cl)cc21	-27%[7.34 µM]	-23%[7.34 µM]
O=C1Nc2ccccc2N(O)N1c1ccc(Cl)c(Cl)c1	8%	0%
O=C(O)COCC(=O)NCc1csc2ccc(Cl)cc12	-12%[7.34 µM]	-12%[7.34 µM]
Cn1cccc1CNCCc1ccccc1F	-8%	0%
COc1ccc(NC(=O)c2cc(S(=O)(=O)N(C)C)ccc2N2CCCC2)cc1Cl	i	-17%
CCOc1ncccc1C(=O)Nc1ccc2c(C)cc(=O)oc2c1	-6%	1%
Cc1cc(C(=O)Nn2c(C3CCCCC3)nc3ccccc3c2=O)ccc1[N+](=O)[O-]	-12%	u
Nn1c(SCC(=O)Nc2ccc3c(c2)OCCO3)nnc1-c1ccncc1	-21%	-15%
Cc1cc([N+](=O)[O-])ccc1NC(=O)COc1nsnc1N1CCOCC1	-9%	2%
CCc1ccccc1NC(=O)CCN1C(=O)C2C3CCC(C3)C2C1=O (centres undefined)	-10%	-3%
CCOc1ccc(N(C)S(=O)(=O)c2ccc3[nH]cc(C(=O)NCC4CCCO4)c(=O)c3c2)cc1 (centres undefined)	x	-21%
O=C(Cn1c(NCCCCl)nc2ccccc21)c1ccccc1	i	-15%
Cc1c(NC(=O)CN2CCN(C(c3ccccc3)c3ccccc3)CC2)c(=O)n(-c2ccccc2)n1C	-23%	-10%
Following part:
SMILES	VACV mCherry inh	VACV Venus inh
CSc1ccc(CNC(=O)CCn2ccc3cc(S(=O)(=O)N4CCC(C)CC4)ccc32)cc1	-12%	-12%
CCOC(=O)CSc1c(-c2cccs2)[nH]c2ccccc12	-4%	-23%
CCC(C(=O)OCC(=O)N1C(C)CCCC1C)c1ccccc1 (centres undefined)	-3%	-12%
CC12CCC(C(=O)Nc3ccccc3Cl)(C(Br)C1=O)C2(C)C (centres undefined)	i	-10%
CCCCc1ccc(NC(=O)CC(C)C)cc1	i	-16%
O=C(Cn1cc2c(n1)CCCC2)NC1CCCCCC1	-1%	2%
Cc1c(O)ccc(/C=N/Nc2ncccc2[N+](=O)[O-])c1O	u	-28%
O=C(c1nc2ccc(Cl)cn2c1CNCCc1cnccn1)N1CCCCCCC1	-3%	-16%
COc1ccc(OC)c(/C=C/C(=O)OCC(=O)N2C(C)CCCC2C)c1 (centres undefined)	i	-14%
Cc1nc2cc(NCc3ccccc3O)ccc2n1Cc1ccccc1	-2%	-5%
CC(=O)c1ccc(NC(=O)CNCC(c2ccccc2)N(C)C)cc1 (centres undefined)	i	1%
Cc1cc(C)c(C2C(C#N)=C(N)Oc3n[nH]c(C)c32)cc1CN1CCCC1 (centres undefined)	-14%	1%
CC(=O)Nc1ccc(SCC(=O)NCCc2ccc(F)cc2)cc1	-12%	u
CCOC(=O)CSc1nnc(CNc2cccc(Cl)c2)n1C	-10%	-5%
COC(=O)Cc1csc(Nc2ccc(F)c(Cl)c2)n1	i	-10%
Cc1ccsc1CNC12CC3CC(CC(C3)C1)C2	-14%	-8%
CSc1ccccc1C(=O)OCC(=O)NC1CCCCCCC1	-23%	-9%
COc1ccc([N+](=O)[O-])cc1/C=N/Nc1nn[nH]n1	-20%	-4%
CCn1c(C(=O)N2CCC(C(=O)NCCCSC3CCCCC3)CC2)cc2sccc21	12%	-13%
CCOc1ccc(CNC(=O)CCn2c(=O)c3cccn3c3ccc(F)cc32)cc1	1%	-6%
CC(/C=C/c1ccccc1F)=N\NC(=O)c1ccccc1	i	-3%
Cc1ccc(S(=O)(=O)N2CCOCC2)cc1C(=O)N1c2ccccc2Sc2ccccc21	x	-24%
CC(C)(C)C1CCc2c(C(=O)NNC(=O)CCCC(=O)O)csc2C1 (centres undefined)	-13%	-6%
COC(=O)c1nn(-c2ccc(OC)cc2)c(=O)c2c(N)sc(C)c12	-1%	3%
CC(C)NC(=O)N1CCN(S(=O)(=O)c2ccc3c(ccn3C)c2)CC1	4%	5%
Following part.
SMILES	VACV mCherry inh	VACV Venus inh
O=C(CCc1nc(-c2ccccc2F)no1)NCCN1CCc2ccccc2C1	x	-16%
CCOc1ccc(-c2nnc(SCC(=O)NCCc3ccc(OC)c(OC)c3)nc2-c2ccc(OCC)cc2)cc1	-11%	-10%
CCS(=O)(=O)N1CCCC(C(=O)NCCOC)C1 (centres undefined)	-4%	-3%
NC(=O)CC[C@@H]1NC(=O)[C@H](CO)NC(=O)c2cc([N+](=O)[O-])cc(I)c2NCCCC[C@@H](C(N)=O)NC(=O)[C@H](Cc2ccc(O)cc2)NC1=O	-14%	2%
COc1cccc(C2=CC(=O)C[C@H](c3ccc4c(c3)OCO4)C2)c1	-15%	-12%
O=C(Nc1sc2c(c1C(=O)NCC(O)CO)CCCC2)c1ccccc1 (centres undefined)	i	-11%
CCOc1cc2c(cc1OCC)-n1cccc1C(c1cccc(F)c1F)NC2 (centres undefined)	-16%	-8%
O=C1c2ccccc2C(=O)N1CC(O)CNc1ccc(Br)cc1 (centres undefined)	-18%	-7%
CCC(C)(C)NC(=O)C1CCCN(S(=O)(=O)c2ccc3c(c2)CC(C)N3C(=O)C2CC2)C1 (centres undefined)	-5%	-22%
COC(=O)C1=C(c2cccc(C#N)c2)C[C@@H]2CC[C@H]1N2C(=O)NCCOc1ccccc1Cl	i	-18%
CC1(NC(=S)Nc2ccc3ccccc3c2)CCS(=O)(=O)C1 (centres undefined)	-13%	-18%
Cc1ccc(-c2noc(-c3ccccc3C(=O)N3CCN(C)CC3)n2)cc1	x	-15%
Cc1ccc(CCNC(=O)c2ccc(Cn3c(=O)c4cccn4c4cccnc43)cc2)cc1	u	u
CCc1ccc2c(CN3CCOCC3)cc(=O)oc2c1	-8%	-21%
CCOc1ccccc1Nc1nc2c(S(=O)(=O)c3ccc(C)cc3)nnn2c2ccsc12	-21%	-18%
O=c1c2ccccc2ncn1CCCOc1ccccc1[N+](=O)[O-]	-12%	-7%
COc1ccc(NC(=O)Cc2nnc(SCC(=O)NC3CCCCC3)n2C)cc1	-11%	-1%
CN(C(=O)COc1ncnc2ccc(Br)cc12)C1CCCCC1	-7%	3%
CCNc1nc(OCCNS(=O)(=O)c2cc(C)ccc2C)nc(N(C)C)n1	-9%	-7%
CCOC(=O)c1c(C)[nH]c(C)c1S(=O)(=O)N(C)CC(=O)N1CCN(c2ccccc2OC)CC1	-17%	-18%
CCOC(=O)[C@@H]1[C@H]2COc3ccc(Br)cc3[C@@H]2N2C(=O)N(c3ccc(OC)cc3)C(=O)[C@]12C	i	-29%
CSc1nc2c(c(=O)[nH]c(=O)n2C)n1Cc1ccc(Cl)cc1	i	-17%
O=C(CSc1nc(-c2ccco2)cc(C(F)(F)F)n1)Nc1ccccc1C(F)(F)F	u	-27%
O=C(CSc1cccc[n+]1[O-])Nc1ccc2c(c1)OCO2	i	-2%
O=C(Nc1ncccn1)c1cccs1	-10%	u

Some of these compounds in order of SMILES length, ascending.
SMILES	VACV mCherry inh	VACV Venus inh
O=C(Nc1ncccn1)c1cccs1	-10%	u
O=C(CSc1cccc[n+]1[O-])Nc1ccc2c(c1)OCO2	i	-2%
O=C(Nc1sc2c(c1C(=O)NCC(O)CO)CCCC2)c1ccccc1 (centres undefined)	i	-11%
CCOc1cc2c(cc1OCC)-n1cccc1C(c1cccc(F)c1F)NC2 (centres undefined)	-16%	-8%
COc1cccc(C2=CC(=O)C[C@H](c3ccc4c(c3)OCO4)C2)c1	-15%	-12%
COC(=O)C1=C(c2cccc(C#N)c2)C[C@@H]2CC[C@H]1N2C(=O)NCCOc1ccccc1Cl	i	-18%

4 entries drawn at random from those above, as already listed:
SMILES	VACV mCherry inh	VACV Venus inh
COC(=O)C1=C(c2cccc(C#N)c2)C[C@@H]2CC[C@H]1N2C(=O)NCCOc1ccccc1Cl	i	-18%
O=C1c2ccccc2C(=O)N1CC(O)CNc1ccc(Br)cc1 (centres undefined)	-18%	-7%
COc1ccc(NC(=O)Cc2nnc(SCC(=O)NC3CCCCC3)n2C)cc1	-11%	-1%
O=C(CSc1cccc[n+]1[O-])Nc1ccc2c(c1)OCO2	i	-2%

Further records follow.
SMILES	VACV mCherry inh	VACV Venus inh
CCOC(=O)c1ccc(NC(=O)c2cccc(S(=O)(=O)N3CCOCC3)c2)cc1	x	u
O=C(CSc1ccc2nnc(-c3cccnc3)n2n1)c1ccccc1	-8%	-16%
N#Cc1ccc(Cl)cc1NC(=O)CNc1cccc(S(=O)(=O)N2CCCC2)c1	u	0%
COc1ccc(NC(=O)c2cc(C3CCCCN3S(C)(=O)=O)on2)c(C)c1 (centres undefined)	3%	7%
O=C(OCC(=O)N1CCN(c2ccccc2)CC1)c1cccs1	i	-15%
COc1cccc2sc(NC(=O)c3ccc4c(c3)OCCO4)nc12	-9%[7.34 µM]	-7%[7.34 µM]
O=C(CCC1CCCC1)N[C@@H](Cc1ccc(O)cc1)C(=O)O	i	-9%
Cc1ccn2c(=O)cc(CSc3nnc(NC(=O)c4ccccc4Cl)s3)nc2c1	-4%	-15%
